Calb FLC: C. albicans growth modulation with fluconazole | 0.57% of 300,000 active | growth inhibition, % (concentration not given with the values) | AID 1979 | C. albicans CaCi-2 (fluconazole-resistant clinical isolate) + fluconazole, Alamar Blue growth, 48 h;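 active = most replicates above 75%; inconclusive = exactly half above 75%; inactive = most below 75%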;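 also: all wells also contain fluconazole at 8 µg/ml as a sub-toxic cotreatment; 0% = median of DMSO wells and 100% = median of geldanamycin control wells; wells of about 8 µL received 7.5 nL stock; the first replicate is given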
MLL AF4-AF9 inh: blocks AF4 peptide binding to human AF9; P42568; AlphaScreen, biotin-AF4 peptide binding to FLAG-AF9; inhibition, % at 10 µM; 0.47% of 350,000 active;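 active = every replicate reaching a set inhibition limit, whatever the replicate mean, cut at about 25% in these data; inconclusive = mean inhibition reaches that limit but some replicates miss it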;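 also: 0% = plate neutral control median and 100% = total signal loss; the record names both 10 and 1 µM as test concentration; the first replicate is given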
Target sequence (P42568 whole entry, looked up): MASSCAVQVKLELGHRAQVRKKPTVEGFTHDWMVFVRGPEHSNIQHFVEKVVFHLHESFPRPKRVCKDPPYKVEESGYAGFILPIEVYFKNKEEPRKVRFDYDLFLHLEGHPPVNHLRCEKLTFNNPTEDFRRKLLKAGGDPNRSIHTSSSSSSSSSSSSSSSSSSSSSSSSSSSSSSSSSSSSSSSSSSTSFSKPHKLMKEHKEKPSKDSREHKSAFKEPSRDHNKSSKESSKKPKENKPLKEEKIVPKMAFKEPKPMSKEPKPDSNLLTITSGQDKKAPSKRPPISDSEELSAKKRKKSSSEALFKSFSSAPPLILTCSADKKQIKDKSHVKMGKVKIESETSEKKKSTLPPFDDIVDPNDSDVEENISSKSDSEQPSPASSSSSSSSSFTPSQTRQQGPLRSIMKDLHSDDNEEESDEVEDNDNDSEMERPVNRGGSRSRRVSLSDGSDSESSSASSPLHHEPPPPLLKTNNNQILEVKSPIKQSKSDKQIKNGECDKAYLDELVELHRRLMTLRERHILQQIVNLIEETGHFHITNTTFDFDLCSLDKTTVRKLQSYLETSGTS
Beta apoptosis: beta cell apoptosis inhibition | 0.8% of 300,000 active | protection from apoptosis, % (no concentration beside the values) | AID 435005 | INS-1E cytokine-induced death, ATP luminescence, 48 h; percent of positive-control rescue, neutral wells zero;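 active = all replicates at 75% or more, or half of them and the mean; inconclusive = half reach 75% but not the mean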;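 also: 0% = cytokine-treated negative control wells and 100% = positive control rescue; higher means more ATP so stronger rescue from cytokine killing; wells of about 40 µL received 100 nL stock; the first replicate is given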
Vif A3G: HIV-1 Vif–A3G interaction blockers – biochemical, TR-FRET, GST-Vif 1-94, biotin-A3G peptide, dose response retest, primary screen (AID 1117319). one-dose inhibition, %; IC50 in µM for titrated hits. 0.57% of 260,000 active. TR-FRET GST-Vif / biotin-A3G peptide binding; higher % means a stronger effect; test concentration not given here; strong numbers were not always called active;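 active = above the screen mean plus three standard deviations and confirmed in dose response; inconclusive = results disagree or hit not tested in dose response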;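 also: Vif residues 1-94 fused to GST binding biotinylated APOBEC3G peptide 110-148; 0% = full assay without inhibitor and 100% = GST in place of GST-Vif; retest series ran down from 100 µM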
LANA-H2A inh: blocks KSHV LANA binding to histone H2A/H2B | Q9QR71 | cell-free LANA-H2A/H2B peptide, fluorescence polarization | inhibition, % (concentration not given with the values) | 0.6% of 320,000 active | AID 2629; in the data active = inhibition mostly above about 10%, no sharp cut-off; inactive = mostly below about 6.7%;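 also: stock transfer was 7.5 nL into about 10 µL; 0% = median of vehicle wells and 100% = median of positive control wells; one replicate is shown; the record names a cut of 25% in any replicate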
Bfl-1 A1 inh: inhibitors of the anti-apoptotic protein A1, read as caspase activation | MEF A1-2A-BIM cells, Caspase-Glo 3/7 luminescence, 3 h; percent of clofoctol response, vehicle zero | caspase activation, % (test concentration not listed) | AID 2462 | 0.066% of 330,000 active;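 active = over half of replicate activation scores above 10%, or exactly half above 10 with the replicate mean above 10; inconclusive = replicate mean below 10 yet half the replicates above 10; inactive = over half of replicates below 10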;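 also: wells of about 30 µL received 50 nL stock; many hits fall short of the cut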
T cruzi inh: T. cruzi replication inhibition | T. cruzi beta-gal in NIH3T3, luminescence, 90 h | inhibition, % (no concentration beside the values) | 1.4% of 300,000 active | AID 1885;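 active = mean inhibition across valid replicates above about 55%, limit read from the data; inconclusive = mean below that limit but half or more replicates reach it; inactive = mean below it, under half of replicates reach it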;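 also: signal also drops with host cell toxicity which is not excluded here; 0% = plate median of DMSO wells and 100% = zero luminescence signal; higher percent means less beta-gal luminescence so fewer parasites; stock transfer was 50 nL into about 50 µL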
RanGTP-Impb inh: disruptors of Ran-importin-beta complex formation – biochemical, FRET, CFP-Ran, YFP-importin-beta, homogeneous, primary screen. inhibition, % (concentration not given with the values). 1.1% of 300,000 active. cell-free CFP-Ran/YFP-importin-beta FRET ratio. AID 2216;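 active = most replicates above 15%; inconclusive = exactly half above 15%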;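 also: 0% = DMSO wells and 100% = Ran loaded with GDP instead of GTP; wells of about 40 µL received 100 nL stock; the first replicate is given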
Starred values were filed as active, the others as inactive; ? = inconclusive; . = no result given; & = joins results of further samples.

Every second line gives: Bfl-1 A1 inh	LANA-H2A inh	MLL AF4-AF9 inh	RanGTP-Impb inh	Calb FLC	Beta apoptosis	T cruzi inh	Vif A3G
- COc1cccc(CNC(=O)c2ccc(CS(=O)(=O)Cc3ccccc3C)o2)c1
    -0.4	2.5	-6.6	1.8	-2	1	8	.
- COc1c2ccoc2nc2c(OC)c(OCC(O)C(C)(C)O)ccc12 (stereo not drawn)
    0.1	0.8	.	.	.	2	.	-1%
- Cc1cc(N2CC(C(=O)NCc3cccs3)CC2=O)ccc1C(C)C (stereo not drawn)
    0.8	-4.1	.	6.3	20	-1	19	1%
- Cc1ccc(OCC(=O)c2cc(C)n(Cc3cccs3)c2C)c([N+](=O)[O-])n1
    -0.7	-4.8	2.7	0.4	-1	12	19	.
- CCn1c(=O)c([N+](=O)[O-])c(NCc2ccco2)c2ccccc21
    0.6	8.2	-1.3	6.1	23	-2	1	4%
- COc1ccc(-c2cc(C(F)(F)F)n3nc(C(=O)N4CCN(C(=O)c5ccco5)CC4)cc3n2)cc1
    0.4	1.5	-3.1	6.0	-8	2	-1	.
- C=C[C@]1(C)C=C2CCC3[C@](C)(CCC[C@@]3(C)C(=O)O)C2CC1 (stereo partly drawn)
    0.9	-7.8	.	2.7	-5	4	-16	.
- CCn1c(=O)c([N+](=O)[O-])c(NC2CCS(=O)(=O)C2)c2ccccc21 (stereo not drawn)
    -1.2	-7.7	-3.4	-3.1	-2	-4	.	10%
- Cc1ccccc1N1CCN(c2ccc(NC(=O)C3CCCCC3C(=O)O)cc2)CC1 (stereo not drawn)
    0.5	-2.2	.	-1.4	-31	-8	-7	21%
- COc1ccc(C2/C(=C(/O)c3ccccc3)C(=O)C(=O)N2C)c(OC)c1 (stereo not drawn)
    1.6	0.2	2.6	1.2	-9	-1	6	.
- CC(C(=O)Nc1ccc(OCc2ccccc2)cc1)N1CCCC1 (stereo not drawn)
    0.3	-2.0	3.0	-0.8	12	-6	2	12%
- COC(=O)c1cccc(NC(=O)CCNC(=O)c2ccc([N+](=O)[O-])cc2)c1
    -1.2	2.7	.	-1.2	1	0	-6	-3%
- Oc1ccc(N2CCN(C(c3cccnc3)c3nnnn3Cc3ccccc3)CC2)cc1 (stereo not drawn)
    0.3	-4.6	.	-2.7	-24	4	?	?
- CCOC(=O)C1=C(C)NC(=O)NC1c1ccc(OC)c(CN2CCOCC2)c1 (stereo not drawn)
    1.1	-3.5	.	?	2	-6	5	0%
- COc1ccc(C(=O)CSc2nc3ccccc3n2CC(=O)c2ccccc2)cc1
    -0.3	1.5	8.9	-1.1	12	-1	14	2%
- CC(c1ccco1)N(C(=O)Nc1ccc(Cl)cc1)c1ccccn1 (stereo not drawn)
    0.6	0.6	.	3.6	3	-6	5	6%
- O=C(CCCC(=O)N1CCN(c2cccc(Cl)c2)CC1)c1ccccc1
    0.2	1.4	2.9	-5.1	20	-3	21	-4%
- CCCCn1c(NCc2ccncc2)nc2ccccc21
    0.6	-0.9	-4.1	0.2	-3	-2	-1	-2%
- Cc1cc(C)cc(C(=O)NN2CCOCC2)c1
    0.6	-4.2	-4.2	-1.8	3	-3	0	-5%
- O=C(COC(=O)/C=C/c1ccccc1)NCc1ccc2c(c1)OCO2
    -2.3	-1.0	-0.4	.	.	-2	.	.
- OCC[C@@H]1C[C@H](O)[C@@H](O)[C@@]2(CCCCO2)O1
    0.5	-1.0	-3.1	-7.0	-15	-8	4	.
- CCOc1ccc(N2C(=O)CC(N3CCN(C(=O)c4ccco4)CC3)C2=O)cc1 (stereo not drawn)
    0.4	-1.2	.	-0.2	2	1	4	-2%
- O=C(Cn1nnc(-c2ccccc2)n1)NCc1cccs1
    0.8	-0.2	.	-3.9	-2	1	-4	3%
- NC(=O)CSc1nnc(-c2cc(-c3ccc(Cl)cc3)nc3ccccc23)o1
    0.2	-3.2	1.3	1.8	-12	3	-5	-5%
- C=CCSC(=S)NC1CCS(=O)(=O)C1 (stereo not drawn)
    0.4	0.0	2.3	-1.7	19	-5	1	5%
- CCCc1nnc(NC(=O)CN2CCN(C)CC2)s1
    -0.4	1.1	.	-1.0	-6	3	-16	8%
- Cc1cc(Nc2ccc(C)c(C)c2)n2nc(C)nc2n1
    -0.3	1.3	-7.7	-0.9	-4	0	-9	74%
- Cc1ccc(S(=O)(=O)NC(=O)Nc2c(C)n(C)n(-c3ccccc3)c2=O)cc1
    0.6	5.6	-22	3.4	-3	0	-12	-1%
- O=[N+]([O-])c1ccc(S(=O)(=O)N/N=C/c2cccs2)cc1
    0.2	-5.3	3.2	6.0	22	-8	3	.
- COc1ccc2c(c1)[nH]c1c(=O)n(CCN3CCCC3)cnc12
    0.2	2.5	.	.	5	0	.	11%
- O=C(Nc1ccnn1C1CCN(Cc2cc(Cl)ccc2O)CC1)C1CC1
    -1.2	0.3	1.6	8.7	1	2	-7	.
- COc1ccc(CN2CCN(C3CCSCC3)CC2CCO)c(C)c1C (stereo not drawn)
    -0.3	-0.4	3.3	-0.4	2	3	13	.
- CCCCc1ccc(-c2ccc(C)cc2O)nc1
    -1.6	-5.1	.	-1.8	-7	.	-17	-25%
- CN(CC(=O)Nc1ccc(F)cc1)C(=O)CSc1ncccn1
    0.0	-3.9	-0.2	2.1	3	-4	-16	-4%
- Cc1ccc(C2=NS(=O)(=O)N(C)C(C(=O)NC(C)c3ccccc3)=C2)cc1 (stereo not drawn)
    0.1	-0.3	-7.0	5.0	15	1	6	.
- N#Cc1ccsc1NC(=O)CN1CCN(S(=O)(=O)c2cc(Cl)ccc2Cl)CC1
    0.5	0.3	.	-1.0	-3	.	5	5%
- CCOCCCNC(=O)CS(=O)(=O)Cc1nc(-c2cccc(OC)c2)oc1C
    1.8	0.3	.	?	3	-3	-24	8%&-1%
- COc1ccc(/C=C/c2noc(-c3ccccc3OC(C)=O)n2)cc1
    -5.9	0.0	-0.7	-0.8	-3	-1	-3	-8%
- O=C1C=C(N2CCOCC2)CCC1
    2.2	3.5	.	5.2	-7	-8	-15	.
- O=C(N/N=C/c1cccnc1)NC12CC3CC(CC(C3)C1)C2
    -0.1	-1.4	4.9	2.4	-10	4	25	-17%
- Cc1cc(N2CCCCC2)nc(NCc2ccccc2)n1
    -0.7	-1.9	.	-6.0	-7	52	56*	-4%
- CC1CCN(CCCNC(=O)c2nn(C)c3c2CS(=O)(=O)c2ccccc2-3)CC1
    -0.1	-7.6	0.5	3.1	-17	-3	9	.
- Cc1ccc(NC(=O)N2CCC(C(N)=O)CC2)cc1
    0.8	-0.8	.	?	5	-1	-7	15%
- O=C(Nc1ccccc1Oc1ccccc1)C1CCCC1
    -0.5	-1.5	-7.9	-1.2	1	-4	-13	24%
- CCCCn1c(N)c(N(CC)C(=O)c2cccc(C)c2)c(=O)[nH]c1=O
    0.4	2.0	2.1	-1.3	-14	-4	1	.
- CCOC(=O)C1=C(C)NC(=O)C(C(N)=O)C1c1ccccc1 (stereo not drawn)
    -0.7	0.7	.	1.6	-22	-3	-15	-3%
- CC1(C)NC(=O)N(CCCOc2ccc3c(c2)CCC3)C1=O
    0.1	-1.3	.	-3.3	-10	-6	-1	0%
- O=C(/C=C/Nc1ccc(S(=O)(=O)Nc2cnc3ccccc3n2)cc1)c1ccccc1
    0.1	1.5	-11	1.8	-4	-7	2	.
- S=c1[nH]nc(-c2cc3c(s2)-c2ccccc2CC3)o1
    -3.1	-0.4	.	17*	58	-10	-29	-5%
- COc1ccc(OC)c(NC(=O)CNC(=O)Cn2c(C)cc3ccccc3c2=O)c1
    0.8	0.8	.	1.5	8	-15	4	7%
- CCN(C(=O)CN1C(=O)S/C(=C\c2cccc(Cl)c2)C1=O)C1CCS(=O)(=O)C1 (stereo not drawn)
    0.5	-2.4	2.4	-2.6	10	2	-15	.
- COc1ccc(OC)c(NC(=O)CCN2CCCCCC2)c1
    -0.5	-6.1	.	1.3	0	-1	-6	-2%
- COc1ccc2nc(Nc3nc(C)c(CCC(C)C)c(=O)[nH]3)nc(C)c2c1
    0.6	-1.2	.	3.6	9	14	45	0%
- CC(C)CN(C(=O)CN1CCC(C)CC1)c1c(N)n(CC(C)C)c(=O)[nH]c1=O
    1.1	-0.9	-2.3	?	-20	-3	-9	16%
- CN1\C(=C/C=C/C=C/C=[N+](C)C)C(C)(C)c2ccccc21
    .	.	41*	8.0	17	.	51	-77%
- CCNC(=O)N1c2ccccc2Sc2ccccc21
    0.6	0.7	0.6	10	4	1	-13	1%
- C=CCc1ccccc1OCCNCCCOC
    0.3	-6.5	-4.4	-2.2	-27	0	9	2%
- C=C1C(=O)O[C@H]2C1CC[C@@](C)(O)C13C=CC(C)(C21)C1(C3)C(=O)O[C@@H]2C3C(C)=CCC3[C@](C)(O)C[C@H](OC(C)=O)C21 (stereo partly drawn)
    -1.1	-2.0	2.8	5.5	-16	-5	-15	13%
- CCOCCCNC(=O)NC(=O)CN1CCN(S(=O)(=O)c2ccc3c(c2)OCCO3)CC1
    0.1	0.7	-0.4	19*	1	-3	-19	11%
- CCc1nc(NCc2ccccn2)c2oc3ccccc3c2n1
    -0.1	2.1	.	5.0	-5	21	-2	-1%&-5%

(next part)
Every second line gives: Bfl-1 A1 inh	LANA-H2A inh	MLL AF4-AF9 inh	RanGTP-Impb inh	Calb FLC	Beta apoptosis	T cruzi inh	Vif A3G
- O=C(NCc1ccc2c(c1)OCO2)C1CCCN1C(=O)Nc1cccc(Cl)c1 (stereo not drawn)
    1.3	-0.1	.	-1.3	11	2	-29	28%
- CCOCCCNC(=O)Cn1nc(Cc2ccncc2)c2ccccc2c1=O
    0.3	1.2	-1.3	-1.9	-5	-1	0	-3%
- Cc1ccc(-c2nc3ncccn3c2NC2CCCCC2)o1
    0.7	-0.6	.	-2.9	8	-2	13	6%
- CC1CCN(C(=O)CSc2nc3cccnc3n2C)CC1
    2.0	0.7	.	3.7	25	-2	5	16%
- O=S(=O)(c1ccc2nc(-c3ccccc3)[nH]c2c1)N1CCN(c2ccc(Cl)cc2)CC1
    0.5	-5.8	.	-3.2	?	9	11	.
- N#Cc1nc(COc2ccccc2)oc1NCCN1CCOCC1
    1.0	-1.4	.	-1.1	5	1	-3	12%
- Cc1ccc(S(=O)(=O)NCC(=O)OCc2nnc(-c3ccccc3)o2)cc1
    0.3	-3.2	-1.6	-0.5	0	-1	-14	.
- CCOC(=O)C1CCCN(c2ncnc3c2cnn3-c2ccc(OC)cc2)C1 (stereo not drawn)
    -2.7	-4.3	.	8.3	?	-2	6	-2%
- CN1CCC(OC(=O)c2ccccc2)CC1
    0.8	3.4	1.4	-1.2	-6	-2	60*	2%
- O=c1cc(-c2ccccc2)nc(/C=C/c2ccccc2)[nH]1
    0.2	2.1	0.9	2.8	17	-3	7	-8%
- CC(C)[C@H](NC(=O)C1CCN(S(=O)(=O)c2ccc(F)cc2)CC1)C(=O)NCc1ccncc1
    -0.6	2.6	2.4	-1.4	0	-8	-9	.
- Cc1nn2c3ccccc3n(CCN3CCCCC3)c2nc1=O
    0.8	3.3	.	-5.1	-4	4	-21	-1%
- Cc1ccc(-c2nc(CCNC(=O)c3ccco3)cs2)cc1
    -0.3	.	-1.8	4.8	6	5	-7	.

From PubChem
